Assay outcomes deposited in PubChem by National Center for Advancing Translational Sciences (NCATS).
TRPV1 potentiator = enhances activation of the human vanilloid receptor TRPV1; TRPV1-expressing cells, Fluo-8 calcium influx, capsaicin EC20 potentiation; host cell line not named in the record; control for the full effect not named in the record; potentiation, % at 8.33 µM; hit rate 0.02% among 320,000; active means potentiation above 80%; inconclusive means 30% to 80%; inactive means below 30%; further: 0% is about no effect
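Fluo-8 calcium influx in TRPV1-expressing cells, kinetic read (ex 480/em 520 nm). Compound added and read 3 min for agonist activity, followed by capsaicin at EC20 final and 2 min further read for enhancement.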
Sfp inh = blocks B. subtilis Sfp PPTase activity; Biochemical Sfp PPTase activity, qHTS; Potency, µM, for inactives: max response, negative = inhibition, most hits filed as inhibitors; Q9F4F7; hit rate 3.5% among 310,000; active means well fitted inhibition curve with a large enough effect; inconclusive means small, poorly fitted or top-dose-only effect, or another doubt; inactive means no such curve, though single readings can be large or run the other way;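 further: the enzyme is Sfp with the accession as filed and its product quenches rhodamine fluorescence; potency means the concentration at half of the fitted maximal effect; 0% = enzyme reaction without inhibitor and -100% = no enzyme wells; top concentration of the series not given in the record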
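Fluorescence-quenching assay with 15 nM Sfp, 5 uM rhodamine-CoA and 12.5 uM BHQ-2-labelled ybbR peptide in pH 7.6 Hepes/MgCl2 buffer. Enzyme was pre-incubated with compound for 15 min at room temperature. Rate was taken from the 30-min fluorescence change (525/598 nm).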
PINK1 expr mod = changes PINK1 expression; PINK1 immunofluorescence, high-content cytometry, 24 h; AID 624263; Potency, µM (series often up to 76.6 µM), without a hit: at the top dose activation (PINK1 increase), hits mostly activators; hit rate 0.2% among 410,000; active = well fitted activation curve with a large enough effect; inconclusive = small, poorly fitted or top-dose-only effect; inactive = flat fitted curve, though single readings scatter; cell line not stated here;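 further: potency means the concentration at half of the fitted maximal effect; % of control where 0% means no effect; nearly all actives have a fitted effect of over 65% in size; a mitochondrial uncoupler was the plate control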
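Fluorescence from anti-PINK1 antibody, together with nuclear and cell stains, was scanned on a laser-scanning cytometer. Before staining, stable-line cells were incubated 24 hours with compounds at 5 concentrations; primary antibody 12 h at 10 degrees C.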
TRPML1 agonist = activates the human TRPML1 channel; TRPML1-expressing cells, Ca2+ dye fluorescence, FDSS; host cell line not named in the record; reference of the full effect not given here; activation, % (no concentration beside the values); hit rate 0.12% among 410,000; AID 624414; in the data active = activation above about 50%; inconclusive = about 30% to 50%; inactive = below about 30%; further: 0% is about no effect; the text of the record puts the active cut at 80%
Target sequence (Q9GZU1 whole entry, looked up): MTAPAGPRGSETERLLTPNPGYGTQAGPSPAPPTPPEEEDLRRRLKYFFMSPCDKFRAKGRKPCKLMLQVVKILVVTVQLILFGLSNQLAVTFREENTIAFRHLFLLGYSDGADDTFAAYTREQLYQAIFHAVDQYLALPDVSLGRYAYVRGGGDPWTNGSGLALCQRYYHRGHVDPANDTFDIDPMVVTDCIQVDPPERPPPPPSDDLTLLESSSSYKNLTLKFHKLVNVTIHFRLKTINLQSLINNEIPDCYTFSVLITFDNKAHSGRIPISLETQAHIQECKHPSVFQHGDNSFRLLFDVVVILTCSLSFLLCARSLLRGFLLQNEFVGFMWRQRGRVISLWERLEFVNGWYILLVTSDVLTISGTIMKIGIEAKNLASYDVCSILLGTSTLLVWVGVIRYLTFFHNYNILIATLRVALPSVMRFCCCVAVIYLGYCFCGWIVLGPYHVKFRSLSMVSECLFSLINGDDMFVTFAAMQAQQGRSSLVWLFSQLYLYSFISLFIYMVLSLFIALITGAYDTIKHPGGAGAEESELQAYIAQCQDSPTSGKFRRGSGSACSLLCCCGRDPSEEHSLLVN
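Calcium fluorescence on an FDSS kinetic reader gave the read-out. Tet-induced TRPML1-DL cells were plated overnight, dye-loaded (Ca8 with quencher, 45-90 min, room temperature, dark), then read 110 s after compound addition, and again 110 s after 4uM final 54-4 (EC80).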
ClpP mod = qHTS Assay for Activators of ClpP. ATP-dependent Clp protease proteolytic subunit (Bacillus subtilis (strain 168)), P80244. purified B. subtilis ClpP, FRET peptide cleavage, 20 min. Potency, µM (titrated, usually from 57.5 µM), inactives show at the top dose activity change, negative = active. hit rate 1.9% among 340,000; active = well fitted falling curve with a large enough effect; inconclusive = small, poorly fitted or top-dose-only effect; inactive = no such curve, though single readings can be large or run the other way; further: potency means the concentration at half of the fitted maximal effect; the source files actives as falling curves though it sought activators and does not explain the sign; nearly all actives have a fitted effect of over 65% in size; many hits overshoot -100%
Target sequence (P80244 whole entry, looked up): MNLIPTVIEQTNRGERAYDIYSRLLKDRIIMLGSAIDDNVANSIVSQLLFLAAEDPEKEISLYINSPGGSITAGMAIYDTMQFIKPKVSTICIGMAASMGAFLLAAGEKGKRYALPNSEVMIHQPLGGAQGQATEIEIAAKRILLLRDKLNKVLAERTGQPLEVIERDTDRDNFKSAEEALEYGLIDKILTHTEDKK
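FRET quenching reversal measured ClpP activation: 10 microg/mL B. subtilis ClpP at pH 8 with the FRET-FV decapeptide, read at 430 nm after 320 nm excitation. The 20-min minus 0-min signal was scaled between DMSO/no-enzyme wells and ADEP (5.8 microM final).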
Menin MLL FP FL = inhibitors of human menin-MLL interaction, wild-type MLL peptide. FP activity change, % at 61.4 µM. Fluorescence polarization, fluorescein-MLL peptide displacement from menin. 290,000 tested, under 10 active; inconclusive = falling polarisation curve, or a change in total fluorescence; inactive = total fluorescence flat and polarisation flat or rising; no compound was filed as active; the % refers to the polarisation; negative = inhibition;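 further: % of control where 0% means no effect; inhibitors lower the polarisation; unlabelled MLL peptide was the positive control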
TRPML1 blocker = inhibitors of human TRPML1 channel | TRPML1-inducible cells, Ca2+ dye fluorescence, FDSS; stronger effect = lower value; inhibition of EC80 agonist-evoked calcium signal | hit rate 0.02% among 390,000 | activity change, negative = inhibition, % (no concentration beside the values); in the data active means activity change below about -50%; inconclusive means about -30% to -50%; inactive means above about -30%;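 further: stimulus is agonist 54-4 at its EC80 concentration; on the % scale 0 is the no-effect control and ±100 the full control effect; compound concentration not given in the record; the text of the record puts the active cut at -80%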
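Tet-induced TRPML1-DL cells loaded with Ca8 no-wash calcium dye were read kinetically on FDSS. Compound addition was followed by EC80 agonist 54-4 (4 uM final); inhibition was read over 110 s.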
Numbers without * were called inactive; ? = inconclusive; / = not tested or not shown; & = joins results of further samples; [ ] = another dose, or the depositor's remark. An unsorted share of the library. Share with any hit: about 4.4%.

SMILES	TRPV1 potentiator	Sfp inh	PINK1 expr mod	TRPML1 agonist	ClpP mod	Menin MLL FP FL	TRPML1 blocker
CS(=O)(=O)N(CC(=O)Nc1c(F)cccc1F)c1cccc([N+](=O)[O-])c1	?	4%	1.0%	-1.4	1.7%	-0.4	-2
Cc1cccc([C@@H]2[C@@H]3C(=O)N(Cc4ccccc4)C(=O)[C@@H]3[C@]3(CC(C)C)C(=O)N(c4cccc(F)c4)C(=O)N23)c1	9	/	-0.7%	-0.3	2.5%	/	0
O=C(CN1C(=O)CC(c2ccco2)Sc2ccccc21)Nc1cccc(C(F)(F)F)c1 (configuration not stated)	/	/	0.5%	1.8	-3.3%	/	5
CCOC(=O)c1[nH]c(C)c(CCC(=O)Nc2ccc(C(C)=O)cc2)c1C	/	/	0.0%	-0.9	0.8%	/	-8
CC(=O)N1CCN(Cc2cc(=O)oc3ccccc23)CC1	/	/	-0.9%	-0.2	-2.5%	/	/
Fc1cccc(Cl)c1CSc1nnc(-c2ccncc2)o1	3	1%	-1.3%	1.6	-3.2%	-0.5	25
CCCSc1nnc2[nH]c(=O)cc(N)n12	0	5%	-1.4%	-0.5	-8.8%	-0.6	8
CCOc1cc(/C=C2/NC(=O)N(Cc3ccccc3F)C2=O)ccc1O	13	1%	2.3%	0.4	-6.9%	-1.1	7
O=C1OC(Cc2ccccc2)(c2ccccc2)c2ccccc21 (configuration not stated)	/	/	3.4%	3.4	-3.9%	/	52
COc1ccccc1N1C(=O)CC(N2CCN(c3ccc(Cl)cc3)CC2)C1=O (configuration not stated)	1	24%	-0.5%	0.7	-2.2%	1.0	5
CCS(=O)(=O)c1ccc2oc(SCC(=O)NC(C)C3CC4CCC3C4)nc2c1 (configuration not stated)	-15	4%	4.1%	-0.3	0.8%	3.2	3
COc1ccc(CCNc2oc(Cc3ccccc3)nc2C#N)cc1OC	-11	0%	-0.3%	1.7	-1.3%	5.4	-8
OC[C@@H]1CN(Cc2cccs2)C[C@H](n2cnc3c(NC4CCCC4)ncnc32)O1	/	/	0.2%	-0.8	-2.1%	/	/
Cc1[nH]nc2c1[C@@H](c1ccccc1[N+](=O)[O-])C(C#N)=C(N)O2	4	?	1.2%	1.2	3.6%	-8.4	43
Cn1nc2c3ccccc3n(Cc3ccccc3)c2nc1=S	-5	3%	4.2%	2.2	/	1.4	-10
COc1ccc(N2CCN(C(=O)c3ccc(C)cc3)CC2)c([N+](=O)[O-])c1	-10	-2%	1.0%	0.2	-3.4%	3.7	-3
COc1ccc(OC)c(NC(=O)c2cn(CC(C)C)c(=O)c3cc(OC)c(OC)cc23)c1	/	/	2.6%	-0.2	-1.3%	/	-10
CC/C(=N\NC(=O)c1ccc(N2CCCC2=O)cc1)c1ccccc1	-11	14%	1.8%	0.7	/	0.4	2
CCn1c(O)c(N=NC(=O)CNC(=O)Cc2ccccc2)c2ccccc21	-1	-1%	-0.4%	2.4	-2.4%	1.5	-9
N/C(=N\OCC(=O)Nc1ccccc1)c1nonc1N	-2	11%	-1.2%	-0.1	/	0.4	-1
Nc1nc(-c2ccc(NC(=O)c3ccco3)cc2)cs1	12	-23%	1.0%	0.8	/	6.1	-16
CCCCCn1c(=O)[nH]c2cc(C(=O)NCCN3CCC(C)CC3)ccc2c1=O	9	16%	0.1%	-0.2	-0.6%	-5.8	-15
CCOC(=O)c1c(C)[nH]c(C)c1S(=O)(=O)NCC(=O)Nc1ccc(C)cc1C	/	/	-0.3%	-1.0	-0.2%	/	10
CN(C)CCCNCCCNC(=O)c1ccccn1	-17	-6%	0.5%	-1.0	1.1%	-2.2	13
Cc1ccc(C)c2sc(N)nc12	0	3%	-0.5%	0.4	-4.1%	-0.8	-8

Carrying on.
SMILES	TRPV1 potentiator	Sfp inh	PINK1 expr mod	TRPML1 agonist	ClpP mod	Menin MLL FP FL	TRPML1 blocker
CCc1ccc(S(=O)(=O)Nc2c(C)n(C)n(-c3ccccc3)c2=O)cc1	?	9%	1.3%	0.3	-0.5%	0.1	8
Oc1[nH]c2ccccc2c1N=Nc1nc(Nc2ccccc2)nc(N2CCOCC2)n1	-35	16µM*	-1.7%	1.2	-0.2%	-3.8	3
COc1ccc(OC)c2c1sc(=NC(=O)C1COc3ccccc3O1)n2C (configuration not stated)	-4	6%	7.8%	1.3	/	0.9	-13
CCCSc1nc2sc3c(c2c(=O)n1CC)CC(C)(C)OC3	-9	1%	11%	1.5	/	1.8	19
O=C1c2cccc3cccc(c23)C(=O)N1c1nccs1	-7	-2%	-8.6%[38.3 µM]	2.6	-24%	6.9	9
O=C(CCC(=O)OCC(=O)c1cccc([N+](=O)[O-])c1)NC1CCCCC1	10	-11%	-0.3%	0.1	-1.9%	2.8	5
CCOC(=O)c1ccc(N=c2sc(C(=O)OC)cc(=O)n2-c2ccc(C(=O)OCC)cc2)cc1	6	-2%	4.6%	1.2	-1.5%	3.1	-5
CC(C)CC1(C(=O)NCCN2CCOCC2)C=CCN1C(=O)c1ccccc1 (configuration not stated)	-1	1%&32%	2.7%	-0.7	-2.2%	-0.8&-0.4	-6
COC(=O)c1c(-c2ccccc2OC)sc2ccc(OC)cc12	10	/	4.0%	3.2	-12%	/	3
O=C(CCN1CCN(CCO)CC1)Nc1ccc(Br)cc1	-7	9%	-1.4%&-1.0%	-0.1&0.4	-2.6%&-2.5%	-0.5	0&-5
CCOC(=O)N1CCN(C(=O)c2cc(OC)cc(OC)c2)CC1	-8	13%	/	0.8	-9.7%	3.0	-12
CN(C)C(=O)CCc1ccc2c3c([nH]c2c1)[C@]1(C)[C@@H](C(=O)N2CCCCC2)C[C@H](CC(=O)NCCCn2ccnc2)C(=O)N1CC3	/	/	0.4%	-0.4	-5.8%	/	37
COc1ccc(-n2c(=O)c3ccccc3n(CC(=O)NC3CCCC3)c2=O)c(OC)c1	6	7%	0.7%	-0.2	-0.3%	2.2	-13
CN1OC[C@@H]2CN(C(=O)C(C)(C)C)[C@H](c3ccc(-n4ccnc4)cc3)C[C@@H]21	/	/	0.2%	0.2	-0.1%	/	/
Cc1cc(OCC(=O)NCC(O)c2ccccc2)c2c(C)c(C)c(=O)oc2c1 (configuration not stated)	6	10%	-0.5%	-1.1	3.7%	-2.4	3
Cn1c(=O)c2[nH]c(Cc3ccsc3)nc2n(C)c1=O	/	/	-1.1%	0.4	2.2%	/	14
COCOCCn1cc(CN2CCS(=O)(=O)N(Cc3ccc(-c4ccc(OC)c(OC)c4)cc3)C(C)C2=O)nn1 (configuration not stated)	/	/	-0.7%	-0.8	-11%	/	-5
O=C(CCCCCn1c(=O)[nH]c2ccccc2c1=O)NCCCN1CCN(c2ccccc2F)CC1	0	12%	-0.1%	0.5	-10%	6.9	-13
CN1C(=O)NC(c2ccc(O)cc2)C2=C1CN(c1ccccc1)C2=O (configuration not stated)	?	7%	2.2%	/	-15%	2.2	/
O=C(C1CCN(S(=O)(=O)Cc2ccccc2)CC1)N1CCN(c2cccc(C(F)(F)F)c2)CC1	/	/	2.8%	-0.6	0.6%	/	-2
O=C(COc1nsnc1N1CCOCC1)Nc1ccc([N+](=O)[O-])cc1	13	12%	-0.6%	0.5	/	2.3	-28
CCOc1ccc(/C=C(\C#N)C(=O)Nc2ccccn2)cc1	-4	20%	3.1%	-0.7	-11%	-0.9	29
CCOc1ccc(N2C(=O)c3cccnc3C2Nc2ccc(OC)cc2)cc1 (configuration not stated)	5	-4%	6.7%[38.3 µM]	0.3	-1.0%	6.1	-24
CCC(Oc1cccc(Cl)c1)C(=O)N1CCCN(C)CC1 (configuration not stated)	-4	14%	-1.6%	-0.5	-0.9%	/	-14
O=C(CSc1nnc(-c2ccccn2)n1Cc1ccco1)c1ccc(-c2ccccc2)cc1	9	-26%	-4.5%[38.3 µM]	-0.3	-5.3%	6.0	-4

Other results follow.
SMILES	TRPV1 potentiator	Sfp inh	PINK1 expr mod	TRPML1 agonist	ClpP mod	Menin MLL FP FL	TRPML1 blocker
C/C(=N\NC(=O)C1(C)CC1(Br)Br)c1ccc(NC(=O)c2ccc(C)o2)cc1 (configuration not stated)	4	20%	-4.4%	0.3	-3.1%	2.5	-13
O=C(CC1S/C(=N/N=C2CCCCCC2)NC1=O)Nc1ccc(Br)cc1F (configuration not stated)	?	18%	2.2%	-0.5	-0.7%	/	0
CC1CC[C@@]23CCC4(C)[C@@]5(C)CCC6C(C)(C)C(=O)CC[C@@]6(C)C5C=C[C@@]4(OC2=O)C3C1C (some centres not stated)	/	12%	-1.5%	/	/	0.8	/
CC1CCCC(C)N1/N=C/c1cc(Br)c(O)c(Br)c1 (configuration not stated)	7	56µM*	/	/	/	6.0	/
CCCCc1c(O)nc(SCC(=O)c2ccccc2)n(-c2ccccc2)c1=O	-2	-29%	0.6%	0.5	/	-0.3	-25
O=c1c2cn[nH]c2nc(SCc2ccccc2F)n1-c1ccc(Br)cc1	7	-7%	0.7%	2.3	/	0.6	-13
C/C(=C\C(=O)c1ccc(C)o1)Nc1ccc2c(c1)OCO2	7	-3%	2.7%[38.3 µM]	-0.1	-2.8%	5.3	8
Cc1ccc(CN2C(=O)N/C(=C\c3ccc(-c4ccc(C(=O)O)cc4C)o3)C2=O)cc1	13	-27%	-0.6%	-0.6	-30%	12	0
CCOC(=O)/C(=C\c1ccc([N+](=O)[O-])cc1)C(=O)c1cc(C(C)=O)c(Nc2ccccc2)s1	2	-11%	-1.9%	0.5	0.4%	10	66
CCNC(=O)C1(C)CCN(C(=O)c2cc(F)ccc2C)C1 (configuration not stated)	/	/	2.5%	0.4	-1.9%	/	7
CC(=O)c1nn(-c2cccc(Br)c2)cc1C(=O)c1ccc(Br)cc1	-4	-10%	2.9%	0.1	1.3%	-0.3	72
O=C(COC(=O)CCc1ccccc1)NC(c1ccccc1)c1ccccc1	-8	6%	-0.5%	6.8	-3.6%	-1.6	23
C=CCN1C(=O)CSc2ccc(C(=O)NCCC3=CCCCC3)cc21	-21	-7%	4.3%[38.3 µM]	1.9	-1.5%	-2.0	14
